HCMV NEC inh: inhibitors of HCMV UL50-UL53 interaction, biochemical, HTRF; 190,000 compounds, 0.15% hits; inhibition, % (no concentration beside the values); HCMV UL50-UL53 nuclear egress complex (human cytomegalovirus); normalized percent inhibition;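 active = both replicates at 50% or more, plus weaker picks with an unusually low signal ratio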;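 note: stock transfer was 100 nL into about 20 µL; 0% = negative control wells and 100% = wells with untagged competitor protein; inactives centre near -12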
GIV Gai3 FP: inhibitors of GIV peptide binding to Galpha-i3, primary screen, biochemical, fluorescence polarization, FITC-GIV GBA peptide, rat Galphai3. Guanine nucleotide-binding protein G(i) subunit alpha-3 (Rattus norvegicus), P08753. 90 min; active compounds read low; scaled: aluminum fluoride 0%, vehicle 100%. percent of control (FP), % (concentration not given with the values). 210,000 compounds, 0.42% hits. AID 1224905, 2016;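 active = replicate mean at 85% of control or lower, very high polarization wells dropped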;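 note: wells of about 15 µL received 100 nL stock; the first replicate is given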
Target sequence (P08753 whole entry, looked up): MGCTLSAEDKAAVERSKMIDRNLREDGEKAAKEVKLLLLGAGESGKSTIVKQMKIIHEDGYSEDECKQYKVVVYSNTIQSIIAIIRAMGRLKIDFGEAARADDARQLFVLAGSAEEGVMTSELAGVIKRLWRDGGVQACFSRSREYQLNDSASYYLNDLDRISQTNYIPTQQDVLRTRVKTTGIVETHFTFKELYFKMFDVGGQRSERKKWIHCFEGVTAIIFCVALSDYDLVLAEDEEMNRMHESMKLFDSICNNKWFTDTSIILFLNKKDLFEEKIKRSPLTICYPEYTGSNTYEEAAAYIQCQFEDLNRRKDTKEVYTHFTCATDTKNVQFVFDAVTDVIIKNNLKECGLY
Sa growth inh: S. aureus growth inhibition at 42 and 30 °C, primary screen, LtaS inhibitor project, RN4220, two temperatures; 170,000 compounds, 0.53% hits; OD600, 20 h, 42 °C; active compounds read low; relative growth, % (no concentration beside the values); AID 720641, 2013;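 active = growth at 42 °C up to 50% and 20 or more points under that at 30 °C, or under 10% at both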;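 note: 300 nL library stock went into each well; scaled to the means of positive and negative controls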
Sa growth inh second temp: further read-out of Sa growth inh, marked with its call; relative growth, %; measured here: growth at 30 °C;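 optical density after 20 h as mean of two plates; 100% = untreated growth and lower means inhibition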
* = called active by the depositor; . = not tested or not shown; & = joins results of further samples.

SMILES	HCMV NEC inh	GIV Gai3 FP	Sa growth inh	Sa growth inh second temp
CCN(CC)C(=O)c1cc2c(n(-c3ccc(OC)cc3)c1=O)CC(C)(C)CC2=O	-2	106	104	76
CCS(=O)(=O)N1CCCC(C(=O)NC(C)c2ccccc2)C1 (stereo not given)	5	98	116	102
Cc1ccc(CNC(=O)CCc2c(C)c3ccc(O)c(C)c3oc2=O)cc1	-37	102	91	87
CCc1cc(SC(C)C(=O)c2c(N)n(C)c(=O)n(C)c2=O)n2c(nc3ccccc32)c1C#N (stereo not given)	-32	.	36	16
CCCCN1CCc2nc(Nc3ccc(OC)cc3OC)ncc2C1	.	105	92	91
COc1ccc(Cl)cc1NC(=O)CSCC(=O)O	-4	100	102	79
COC(=O)c1scc(C)c1NN1C(=O)c2ccccc2C1=O	-35	99	90	85
COc1ccc(C(=O)CN2CCN(S(=O)(=O)c3ccc(F)cc3)CC2)cc1	.	103	116	91
Cc1ccc(C)c(NC(=O)NCCCN2CCc3ccccc3C2)c1	-17	103	94	86
Cc1cccc(C=Nc2c(C)n(C)n(-c3ccccc3)c2=O)c1	-8	.	82	107
COc1nc(-c2ccccc2Cl)c2cc(Br)ccc2n1	.	108	119	85
O=C(O)c1cc(NS(=O)(=O)c2cc(F)ccc2F)cnc1N1CCC(N2CCCCC2)CC1	-28	94	.	.
FC(F)(F)Oc1ccc(N=Cc2ccc[nH]2)cc1	-11	.	82	91
Cc1nc2ncccc2c(=O)n1-c1cccc(NC(=O)c2ccc(Br)cc2)c1	7	101	.	.
CC1=C(C(=O)Nc2ccc(Br)cn2)C(c2ccccc2C(F)(F)F)C2=C(CCCC2=O)N1 (stereo not given)	-10	104	.	.
Cc1c(NC(=O)c2ccc(Cl)cc2)cc(C(C)C)c(O)c1S(=O)(=O)c1ccc(Cl)cc1	-14	107	86	86
COc1cc(Cl)c(C)cc1Nc1nc2ccccc2c2nnc(C)n12	.	111	104	98
CCOC(=O)c1ccc(Nc2nc3ccccc3nc2NS(=O)(=O)c2ccc(Cl)cc2)cc1	-42	105	102	88
CN(NS(=O)(=O)c1ccc(Cl)c(Cl)c1)c1cccc(F)c1C#N	-9	99	143	73
CC1(C(=O)NCc2ccccc2)CCN(C(=O)c2cccc(Cl)c2)CC1	10	104	.	.

Four compounds from above with just Sa growth inh.
smiles,Sa growth inh
CCS(=O)(=O)N1CCCC(C(=O)NC(C)c2ccccc2)C1 (stereo not given),116
CN(NS(=O)(=O)c1ccc(Cl)c(Cl)c1)c1cccc(F)c1C#N,143
COc1ccc(Cl)cc1NC(=O)CSCC(=O)O,102
Cc1ccc(CNC(=O)CCc2c(C)c3ccc(O)c(C)c3oc2=O)cc1,91

Reprinted at random: 3 entries already listed, in no set order.
SMILES	HCMV NEC inh	GIV Gai3 FP	Sa growth inh	Sa growth inh second temp
COc1ccc(Cl)cc1NC(=O)CSCC(=O)O	-4	100	102	79
CCCCN1CCc2nc(Nc3ccc(OC)cc3OC)ncc2C1	.	105	92	91
CCc1cc(SC(C)C(=O)c2c(N)n(C)c(=O)n(C)c2=O)n2c(nc3ccccc32)c1C#N (stereo not given)	-32	.	36	16

(cont.)
SMILES	HCMV NEC inh	GIV Gai3 FP	Sa growth inh	Sa growth inh second temp
O=C(CC1N=C2c3ccccc3N=C(SCc3ccccc3Cl)N2C1=O)NCc1cccs1 (stereo not given)	.	105	98	94
O=C(Nc1nc(-c2ccc(Br)cc2)ns1)c1ccc(F)cc1	-23	97	92	84
CC(Sc1nc2ccccc2c(=O)n1Cc1ccco1)C(=O)c1ccc(F)c(F)c1 (stereo not given)	-4	.	89	92
Cc1cc(C(=O)O)c(CSCc2cc(C(=O)O)oc2C)o1	-1	.	114	95
Cc1cc(C)nc(SC(C(=O)c2ccccc2)c2ccccc2)n1 (stereo not given)	1	.	73	94
CN1CCc2nc(NC(=O)c3ccccc3Cl)sc2C1	-7	99	.	.
CCN(CCO)c1nc(NC2CCCCC2)c2cnn(C)c2n1	-13	108	97	78
O=C(NCCc1ccccc1)C1CCC(CNS(=O)(=O)c2cccc3cccnc23)CC1 (stereo not given)	2	103	106	85
Cc1ccc(C=Nc2cc(Cl)ccc2O)o1	5	.	100	94
O=C(Oc1ccccc1OC(=O)C1C2CCCCC21)C1C2CCCCC21 (stereo not given)	-3	.	90	88
N#CC1=C(N)OC2=C(C(=O)CCC2)C1c1ccc(N2CCOCC2)c([N+](=O)[O-])c1 (stereo not given)	-28	102	.	.
CC(=O)Oc1ccc(C(=O)N(Cc2nc(-c3cccc(C)c3)no2)C(C)C)cc1	-4	105	74	30
Cc1[nH]c(=S)n(CC2CCCO2)c1C (stereo not given)	-8	.	90	95
NS(=O)(=O)c1ccc(CCNC2CC(=O)N(Cc3cccs3)C2=O)cc1 (stereo not given)	-4	103	92	96
CCOC(=O)c1cc2n(n1)CC(C)(C(=O)NC1CCCC1)N(c1cc(OC)cc(OC)c1)C2=O (stereo not given)	-2	98	.	.
CSc1cccc(N2C(=O)CSC2=O)c1	8	113	106	103
CC[n+]1c(C)oc2ccc(OC)cc21	-25	107	63	54
CCOc1ccc(CCNC(=O)CCCn2nc(C)c3sc4ccccc4c3c2=O)cc1OCC	-6	108	85	70
Cc1cccc(NC2=NC3CS(=O)(=O)CC3S2)c1 (stereo not given)	1	101	86	80
COC(=O)c1ccc(OCC(=O)NCC(F)(F)F)cc1	17	.	93	94
CCOC(=O)c1ccc(-n2c(CCC(=O)O)ccc2-c2ccc(Br)cc2)cc1	-73	108	99	69
COc1ccc(NS(=O)(=O)c2csc(C(N)=O)c2)cc1	-1	101	.	.
CS(=O)c1[nH]c(-c2ccccc2)nc1S(=O)(=O)c1ccccc1 (stereo not given)	-17	107	.	.
N#CC1=C(N)OC(N)=C(C#N)C1c1cc(Br)cs1	-52	.	59	63
Cc1cc(Nc2cccc(C(F)(F)F)c2)nc2ccc(NC(=O)c3cccc(Cl)c3)cc12	.	102	113	91
CCc1ccccc1NC(=O)C(C)n1c(=O)cc(C)c2c(C)nn(-c3ccccc3)c21 (stereo not given)	.	101	89	91
COc1ccc2oc(=O)c(C(=O)NC(C)(C)C)cc2c1	-43	.	111	82
CCCCNC(=O)c1ccccc1NC(=O)CC	-21	106	104	99
NC(=O)C1CCN(C(=O)c2ccco2)CC1	7	.	100	96
CCn1ccc2cc(S(=O)(=O)N3CCCC(C(=O)N4CCCCC4)C3)ccc21 (stereo not given)	-28	110	.	.
COc1cccc(C=NC2CCN(Cc3ccccc3)CC2)c1OC	5	100	111	111
COC(=O)C1=C(C)NC2=C(C(=O)CC(c3ccccc3)C2)C1c1ccccc1OC(C)C (stereo not given)	.	106	82	66
COc1cccc(CNC(=O)c2c3c(nc4ccccc24)C(=O)N(C2CCCCC2)C3)c1	.	89	103	82
Clc1ccc(-c2noc3ncnc(NCCCN4CCN(c5ccccc5)CC4)c23)cc1	.	98	98	87
COc1ccccc1C(=O)n1nc(C)cc1C	.	96	104	86
COc1cc(C2CC(=O)Nc3cc4c(cc32)OCO4)cc(OC)c1O (stereo not given)	2	103	126	94
Cn1nc(C(=O)N2CCN(c3ccccc3)CC2)c2c1-c1ccccc1SC2	-20	100	108	92
CCN(CC)C1=C(C(=O)c2ccccc2)NS(=O)(=O)c2ccccc21	-73	111	115	90
CCOc1ccc(OCC(=O)NCCc2nc3ccccc3[nH]2)cc1	8	108	99	95
O=C1C(=Cc2cn[nH]c2-c2ccccc2)C(=O)c2ccccc21	-36	103	115	110

Five compounds out of the list, sorted by count of non-hydrogen atoms, low to high.
SMILES	HCMV NEC inh	GIV Gai3 FP	Sa growth inh	Sa growth inh second temp
NC(=O)C1CCN(C(=O)c2ccco2)CC1	7	.	100	96
CCCCNC(=O)c1ccccc1NC(=O)CC	-21	106	104	99
COc1cc(C2CC(=O)Nc3cc4c(cc32)OCO4)cc(OC)c1O (stereo not given)	2	103	126	94
CCn1ccc2cc(S(=O)(=O)N3CCCC(C(=O)N4CCCCC4)C3)ccc21 (stereo not given)	-28	110	.	.
Cc1cc(Nc2cccc(C(F)(F)F)c2)nc2ccc(NC(=O)c3cccc(Cl)c3)cc12	.	102	113	91

Further records:
SMILES	HCMV NEC inh	GIV Gai3 FP	Sa growth inh	Sa growth inh second temp
Cc1ccc(NC(=O)c2ccc3snnc3c2)cc1C	-26	105	106	94
COc1ccccc1-c1c(C)nn2c(NCCN3CCN(Cc4ccccc4)CC3)cc(C)nc12	-13	100	88	93
CC(C)c1cc(C(C)C)c(S(=O)(=O)N2CCCC2)c(C(C)C)c1	.	93	121	89
CC(NC(=O)Cn1c(=O)oc2cc(S(=O)(=O)N(C)C)ccc21)c1ccccc1 (stereo not given)	1	.	99	95
CCOC(=O)c1cc2cccc(Cl)c2[nH]1	-16	97	81	83
Cn1ncc2c(NCc3ccccc3Cl)nc(NCCO)nc21	.	100	95	86
Cc1ccccc1CSCCNC(=O)CN(c1ccccc1)S(=O)(=O)N(C)C	-10	98	102	89
O=C1COc2ccc(NC(=O)c3ccccc3Br)cc2N1	-26	104	.	.
COc1ccc(C)cc1NC(=O)Cn1c(=O)n(Cc2nc(C)no2)c(=O)c2ccccc21	-10	109&104	104	92
COc1cccc(=O)c2c(C)oc(C)c12	-73	25*	104	83
C=C(C)CC1N(CCc2ccccc2)C(=O)C2C(C(=O)O)C3C=CC21O3 (stereo not given)	14	99	128	112
O=C(Nc1nc(-c2cc([N+](=O)[O-])cs2)cs1)c1cc(-c2cccs2)nc2ccccc12	-17	100	.	.
O=C(Oc1c(CN2CCOCC2)cc(Cl)c2cccnc12)c1ccccc1	-31	.	117	89
COc1cc(/C=c2\sc3nc4ccccc4n3c2=O)cc(Cl)c1OCCOc1ccccc1C	-29	104	.	.
CCCN1C(=O)c2c(C(=O)NCc3ccccn3)ncn2CC1(C)C(=O)NCCC(C)C (stereo not given)	-28	102	.	.
Cc1ccc2c(c1)sc1nc(C)c(S(=O)(=O)Nc3cccc(C)c3C)c(=O)n12	-26	107	.	.
Cc1c(C(=O)N2CCOCC2)oc2c1-c1nn(CC(=O)NCc3cccc(F)c3)cc1CC2	.	112	79	77
COc1ccc(C2=NN(C(=O)CCC(=O)O)C(c3cccc(OC)c3OC)C2)cc1OC (stereo not given)	-50	102	.	.
O=C(CC(Sc1ccc(Cl)cc1)c1ccc(Cl)cc1)C1CC1 (stereo not given)	-13	.	65	80
O=C(CCCn1c(=O)[nH]c2ccccc2c1=O)N1CCN(c2ccccc2)CC1	.	102	96	91
O=C(CSc1nnc2sc3ccccc3n12)Nc1ccc2c(c1)OCO2	-13	105	.	.
CCCN(Cc1c(F)cccc1F)CC1CC1	10	108	94	100
CCOC(=O)c1cc(S(=O)(=O)N2CCCC2C(=O)NC2CCC(C)CC2)cn1C (stereo not given)	-14	104	.	.
Cc1ccc(S(=O)(=O)/N=S(\C)c2ccc(C(F)(F)F)cn2)cc1 (stereo not given)	-15	96	97	85
COCCN1C(=O)/C(=C\c2ccc(OC(=O)C3C(C=C(Cl)Cl)C3(C)C)cc2)SC1=S (stereo not given)	-22	108	.	.

Gathered by group, the compounds so far containing a CF3 group (five)
SMILES	HCMV NEC inh	GIV Gai3 FP	Sa growth inh	Sa growth inh second temp
FC(F)(F)Oc1ccc(N=Cc2ccc[nH]2)cc1	-11	.	82	91
CC1=C(C(=O)Nc2ccc(Br)cn2)C(c2ccccc2C(F)(F)F)C2=C(CCCC2=O)N1 (stereo not given)	-10	104	.	.
COC(=O)c1ccc(OCC(=O)NCC(F)(F)F)cc1	17	.	93	94
Cc1cc(Nc2cccc(C(F)(F)F)c2)nc2ccc(NC(=O)c3cccc(Cl)c3)cc12	.	102	113	91
Cc1ccc(S(=O)(=O)/N=S(\C)c2ccc(C(F)(F)F)cn2)cc1 (stereo not given)	-15	96	97	85
